GIRK2 act = activators of human GIRK2 potassium channels. 63,000 compounds, 0.05% hits. P48051. AID 1259325. calls only for hits at 25 µM. HEK293-GIRK2 thallium flux, Thallos fluorescence;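 active means among the strongest 0.2% of first-round signals and kept after retests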;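 further: first round at about 10 µM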
Target sequence (P48051 whole entry, looked up): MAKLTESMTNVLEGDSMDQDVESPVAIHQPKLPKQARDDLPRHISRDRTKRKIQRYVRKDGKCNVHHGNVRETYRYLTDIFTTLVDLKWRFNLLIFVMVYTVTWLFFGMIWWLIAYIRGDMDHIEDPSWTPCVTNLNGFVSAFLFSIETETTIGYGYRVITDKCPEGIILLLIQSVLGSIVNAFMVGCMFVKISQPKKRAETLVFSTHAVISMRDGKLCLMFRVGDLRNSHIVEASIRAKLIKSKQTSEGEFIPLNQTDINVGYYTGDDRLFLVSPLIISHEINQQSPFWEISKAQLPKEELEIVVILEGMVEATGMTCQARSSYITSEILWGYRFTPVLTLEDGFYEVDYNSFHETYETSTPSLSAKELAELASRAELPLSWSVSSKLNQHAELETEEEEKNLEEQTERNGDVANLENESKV
Calls only; i = inactive. These rows are one share of the data; count on the stated rates, not on these rows.

SMILES	GIRK2 act
COc1cc(/C=C/C(=O)NCC2(O)CCCC2)cc(OC)c1OC	i
Cc1c(C)n2c3c(=O)n(CC(N)=O)c(=O)n(C)c3nc2n1-c1ccc(Cl)cc1	i
O=C(NCc1ccsc1)C1c2ccccc2Oc2ccccc21	i
Cn1c(SCC(=O)N2CCN(c3ccc(F)cc3)CC2)nc2c(-c3ccccc3)csc2c1=O	i
CCCSc1nnc(NC(=O)CCc2ccc(C)o2)s1	i
Cn1c(N=Nc2c(O)[nH]c(=O)[nH]c2=O)nc2c1c(=O)n(Cc1ccccc1)c(=O)n2C	i
COc1nn(C)cc1C(=O)Nc1ccc(C(=O)NCCc2c[nH]c3ccccc23)cc1	i
O=C(Cc1c[nH]c2ccccc12)Nc1cnc(N2CCN(c3ccccc3)CC2)nc1	i
Cn1c(=O)c2[nH]c(SCC(=O)Nc3ccccc3F)nc2n(C)c1=O	i
O=C(O)c1ccc(Br)cc1[N+](=O)[O-]	i

A second format for part of the listing above:
Compound: O=C(NCc1ccsc1)C1c2ccccc2Oc2ccccc21
  GIRK2 act: i

Compound: Cn1c(SCC(=O)N2CCN(c3ccc(F)cc3)CC2)nc2c(-c3ccccc3)csc2c1=O
  GIRK2 act: i

(cont.)
SMILES	GIRK2 act
O=C(Nc1nc(CCC(=O)N2CCc3ccccc32)cs1)NC1CCCCC1	i
Cc1nc(-c2nnc(NC(=O)c3sc4ccccc4c3Cl)o2)cs1	i
Cc1cc(=O)[nH]c(-n2nc(-c3ccco3)cc2NC(=O)c2ccc3c(c2)OCO3)n1	i
O=C(Nc1cccc(C(F)(F)F)c1)N1CCC(Oc2ccccn2)CC1	i
O=C(CSc1nnc(N2CCN(C(=O)c3cccc([N+](=O)[O-])c3)CC2)s1)Nc1ccccc1	i
Cc1ccc(NC(=O)c2c(N)n(/N=C\c3cccs3)c3nc4ccccc4nc23)cc1	i
Cc1cc(C)c(NC(=O)Cn2c(=O)cc(-c3nc(C)no3)c3ccccc32)c(C)c1	i
O=C(CN1CCC(c2nnc(-c3ccsc3)o2)CC1)Nc1ccc(Br)cc1	i
CC(=O)c1ccc(NC(=O)c2cc(-c3ccc(Cl)cc3[N+](=O)[O-])oc2C)cc1	i
COc1ccccc1C1(CNC(=O)c2ccc3c(c2)OCO3)CCOCC1	i
COc1c[nH]c(C(=O)Nc2nccs2)cc1=O	i
C=Cc1ccc(Cn2nc3c(S(=O)(=O)N4CCN(c5ccc(F)cc5)CC4)cccn3c2=O)cc1	i
O=C(Nc1nc(C(=O)N2CCN(c3ccccc3)CC2)co1)C1CC1	i
O=C(NCCN1CCN(C(=O)CSc2ccc(F)cc2)CC1)c1ccsc1	i
CCOc1ccc(OC(C)C(=O)Nc2cc(N3CCN(c4ccccc4)CC3)ncn2)cc1 (configuration not stated)	i
CCc1cc(=O)[nH]c(-n2ncc(C(=O)NCc3ccco3)c2C)n1	i
COc1ccc(C(=O)NCc2ccccc2OC(F)(F)F)nn1	i
CC(C)N1CCC(CNS(=O)(=O)c2ccc(C(C)(C)C)cc2)CC1	i
COc1ccc(N2CCN(CC(=O)N3CCN(c4ccccn4)CC3)C2=O)cc1	i
O=C(c1cc2ccccc2[nH]1)N1CCC(Cn2c(C(F)(F)F)nc3ccccc32)CC1	i
O=S(=O)(NCCn1ncc2c(N3CCOCC3)ncnc21)c1ccccc1	i
CN1C(=O)c2cccc(NC(=O)CCS(=O)(=O)Cc3ccccc3)c2C1=O	i
C=CCn1c(=O)c2c(nc3n(-c4ccc(OC)cc4OC)c(C)cn23)n(C)c1=O	i
COc1ccccc1NC(=O)c1cn(Cc2ccc(NC(=O)CC3CCCCC3)cc2)cn1	i
COc1ccc(-c2ccc(=O)n(CCNS(=O)(=O)c3ccc4ccccc4c3)n2)cc1	i
COc1ccccc1N1C(=O)N(Cc2ccccc2F)c2ccccc2S1(=O)=O	i
CC(=O)N1CCN(C(=O)CCc2csc(NC(=O)Nc3cccc(Cl)c3)n2)CC1	i
COc1ccc(S(=O)(=O)NCC(c2ccsc2)N2CCc3ccccc3C2)cc1F (configuration not stated)	i
COc1ccc(C(C)=O)cc1NC(=O)C1=NCCN1	i
Cc1ccc(NC(=O)Nc2c(F)cccc2F)cc1N1CCCC1=O	i

Reformatted with each value named: entries from further up.
COc1ccccc1NC(=O)c1cn(Cc2ccc(NC(=O)CC3CCCCC3)cc2)cn1
  GIRK2 act = i

C=CCn1c(=O)c2c(nc3n(-c4ccc(OC)cc4OC)c(C)cn23)n(C)c1=O
  GIRK2 act = i

Next part.
SMILES	GIRK2 act
COc1ccc(-n2c(O)c(C=C3C=Nc4ccccc43)sc2=S)cc1	i
COc1ccc(CC(=O)N2CCN(c3ccc(N4CCCCC4)nn3)CC2)cc1	i
Cc1cccc(-c2csc3c(=O)[nH]c(N4CCC(C(=O)NC5CCC(C)CC5)CC4)nc23)c1 (configuration not stated)	i
O=C(Cc1cccc2ccccc12)NCC1(O)CCOc2ccccc21 (configuration not stated)	i
COC(=O)C1=CO[C@@H](O[C@@H]2O[C@H](CO)[C@@H](O)[C@H](O)[C@H]2O)[C@@H]2C(CO)=CC[C@H]12	i
COc1ccc(-c2noc(-c3ccc(=O)n(Cc4cc(=O)n5ccccc5n4)n3)n2)cc1F	i
Cc1cc(OCC(=O)N(C)c2ccccc2)nc(N2CCCCCC2)n1	i
O=C(Cc1ccc(F)cc1)NC1CCCC(OC(=O)Nc2ccccc2)C1 (configuration not stated)	i
CCC(C(=O)NCc1cc(-c2ccncc2)n(C2CCCC2)n1)c1ccccc1 (configuration not stated)	i
COC(=O)c1ccc2c(=O)n(-c3cc(OC)cc(OC)c3)c(N3CCCC3)nc2c1	i
O=C(Cn1ccn2nc(-c3ccc(Cl)cc3)cc2c1=O)NCCCc1ccccc1	i
CCS(=O)(=O)c1ccc(C(=O)N(CCn2cccn2)c2nc3ccccc3s2)cc1	i
COc1cc(C)c(Cc2cnc(N)nc2N)cc1OC	i
CC(=O)N1CCN(S(=O)(=O)c2cccc(C(=O)Nc3cc(C)nc4c(F)cc(F)cc34)c2)CC1	i
O=C(/C=C\c1ccc2c(c1)OCO2)N1CCN(c2ncnc3c2nnn3-c2ccc(Cl)cc2)CC1	i
O=C(NCc1ccc(F)cc1Cl)c1ccc(CS(=O)(=O)Cc2ccccc2F)o1	i
O=C(c1ccc(S(=O)(=O)N2CCCC2)cc1)N1CCN(Cc2nc(-c3ccccc3)cs2)CC1	i
CCc1ccc(NC(=O)COc2coc(CSc3nncn3C)cc2=O)cc1	i
CS(=O)(=O)N1CCC(CNC(=O)CC(CC(=O)O)c2cccs2)CC1 (configuration not stated)	i
N#Cc1cccc(C(=O)N2CCN(CC(O)C3CC3)CC2)c1 (configuration not stated)	i
O=C(Nc1c(F)cccc1F)N1CCC(c2ccccc2)C1 (configuration not stated)	i
O=C(NCCN1CCN(c2ccccc2F)CC1)C(=O)NCc1cccs1	i
C[C@@H]1CN(CCCn2c3ccccc3c3ccccc32)C[C@H](C)N1	i
Cc1cc(O)c(C(c2cccs2)c2c(O)cc(C)n(C)c2=O)c(=O)n1C	i
COc1ccc(S(=O)(=O)N2CCCc3cc(NC(=O)Cc4cccc5ccccc45)ccc32)cc1	i
Cc1cn2c3c(=O)n(CC(C)C)c(=O)n(C)c3nc2n1C1CCCCC1	i
COc1ccc(C(C)(C)C)cc1S(=O)(=O)N1CCCCCC1	i
Cc1cccc(Cn2nc3n(C(C)C)c(=O)c4ccc(C(=O)NCC(C)C)cc4n3c2=O)c1	i
COc1ccccc1C(=O)Nc1sc2c(c1-c1nc3ccccc3s1)CCN(C(C)=O)C2	i
COc1ccc(CCNC(=O)CN2CCC(Cn3cnc4ccccc43)CC2)cc1OC	i
O=C(CN1CCC(c2cccs2)CC1)OCc1ccccc1	i
CC(C)(C)C(=O)Nc1c2c(nn1CC(=O)NCc1ccco1)CSC2	i
COc1ccc(Cl)cc1NC(=O)N1CC(c2nc(-c3ncccn3)no2)C1	i
CC(C)c1c(C(=O)NCc2ccco2)nnn1-c1cccc(C(F)(F)F)c1	i
COc1ccc(C2c3c(oc4ccc(Br)cc4c3=O)C(=O)N2C)cc1 (configuration not stated)	i
CC(=O)N1CCc2c(sc(NC(=O)c3ccc(F)cc3)c2-c2nc3ccccc3s2)C1	i
Cc1ccc(-n2nc3c(c2NC(=O)CN(C)S(C)(=O)=O)CSC3)c(C)c1	i
COc1ccc(CNC(=O)c2sccc2N(C)S(=O)(=O)c2ccccc2)cc1	i
COc1cc(C(O)C2COC(c3ccc(O)c(OC)c3)C2CO)ccc1O (configuration not stated)	i
O=C(Nc1cnoc1)c1cc2ccccc2o1	i
CCn1c(=O)c(C(=O)Nc2cccc(C)c2)cc2cccnc21	i
COc1ccccc1N1C(=O)/C(=C/c2cc(OC)c(OC)c(OC)c2)SC1=S	i
NS(=O)(=O)c1ccc(CCNC(=O)c2ccc(OCc3nc(-c4ccco4)cs3)cc2)cc1	i
CNC(=O)CSc1ncc(-c2ccc(OC)cc2)n1-c1ccccc1	i
O=C(CCc1ccccc1)N1CCN(c2ncnc3c2nnn3-c2ccccc2)CC1	i
Cn1c(=O)[nH]c(=O)c2c1nc(N1CCC(C(N)=O)CC1)n2Cc1ccccc1	i
Oc1c(CN2CCCCC2)cc(Cl)c2cccnc12	i
CC(=O)c1ccc(NC(=O)CSc2nnc(CCc3c(C)[nH]c(=O)n(C)c3=O)o2)cc1	i
Cc1ccccc1N1CCN(Cc2nc(-c3ccc(N4CCSCC4)nc3)no2)CC1	i
COc1ccc(CN(c2cc(C)cc(C)c2)S(=O)(=O)c2cccn3cnnc23)cc1F	i
Further results follow:
SMILES	GIRK2 act
C=CCOC(=O)COc1ccc2c(=O)c(Oc3ccc(OC)cc3)coc2c1	i
COc1ccc(N2C(=O)C3ON(c4ccccc4C)C(c4cccs4)C3C2=O)cc1 (configuration not stated)	i
O=C(Cn1nc2c(c1NC(=O)COc1ccccc1)CSC2)NCc1ccccc1	i
CC(=O)N1CCN(S(=O)(=O)c2ccc(C(=O)O)cc2)CC1	i
FC(F)(F)c1cccc(NC(=S)c2nc3ccccc3[nH]2)c1	i
O=C(NCCC(O)C1CC1)Nc1cccs1 (configuration not stated)	i
CCOc1ccc(C(=O)Nc2cccc(NS(C)(=O)=O)c2)nn1	i
COc1ccc(OCc2noc(CNC(=O)c3ccc[nH]c3=O)n2)cc1	i
Cc1cc(=O)[nH]c(-n2nc(-c3cccs3)cc2NC(=O)CC(C)(C)C)n1	i
CSc1cccc(NC(=O)NCCNc2ccc(C)nn2)c1	i

At a glance, 6 of the compounds above:
SMILES	GIRK2 act
C=CCOC(=O)COc1ccc2c(=O)c(Oc3ccc(OC)cc3)coc2c1	i
COc1ccc(N2C(=O)C3ON(c4ccccc4C)C(c4cccs4)C3C2=O)cc1 (configuration not stated)	i
O=C(Cn1nc2c(c1NC(=O)COc1ccccc1)CSC2)NCc1ccccc1	i
CC(=O)N1CCN(S(=O)(=O)c2ccc(C(=O)O)cc2)CC1	i
FC(F)(F)c1cccc(NC(=S)c2nc3ccccc3[nH]2)c1	i
O=C(NCCC(O)C1CC1)Nc1cccs1 (configuration not stated)	i

Additional structures follow.
SMILES	GIRK2 act
CSc1nnc(-c2ccccc2NC(=O)c2ccc(C)c(S(=O)(=O)N3CCCC3)c2)o1	i
O=C(Cn1nc2ccc(-c3ccccc3)nn2c1=O)N1CCN(c2ccccc2F)CC1	i
CC(=O)Nc1cccc(NC(=O)Cn2nc(-c3cccs3)c3sc(N4CCCC4)nc3c2=O)c1	i
O=C(c1ccc(NS(=O)(=O)c2cccc(F)c2)cc1)N1CCCCC1	i
Cc1nc(C)c(-c2nnc(NC(=O)c3cccc(S(=O)(=O)C(C)C)c3)o2)s1	i
Cc1noc(CNC(=O)C2CCN(C(=O)c3ccccc3F)CC2)n1	i
O=C(NCc1ccc(F)cc1)N1CCN(Cc2csc(-c3ccccc3)n2)CC1	i
CCSc1nnc(NC(=O)C2COCC(=O)N2Cc2ccccc2)s1 (configuration not stated)	i
COc1ccccc1Oc1c(C)oc2cc(OC(=O)c3cc(OC)c(OC)c(OC)c3)ccc2c1=O	i
O=C1c2oc3ccccc3c(=O)c2C(c2ccccc2)N1CCCN1CCOCC1 (configuration not stated)	i
Cc1ccc(N2CCCC(C(=O)Nc3ccc(Br)c(C)c3)C2)nn1 (configuration not stated)	i
C/C=C/C=C/C(=O)N1CC[C@]23c4ccccc4N[C@H]4N(C)c5cccc6c5[C@]42CCN([C@H]6C2OC2(C)C)[C@H]13 (some centres not stated)	i
Cc1cn2c3c(=O)[nH]c(=O)n(C)c3nc2n1CCCN1CCN(c2cccc(Cl)c2)CC1	i
Cc1cc(OCC(=O)NCCOc2ccc(-c3ccccn3)nn2)ccc1Cl	i
COc1ccc(-c2coc3c4c(ccc3c2=O)OCN(CCc2cccs2)C4)cc1OC	i
Cc1c(C(=O)Nc2ccccc2-c2nc3ccccc3[nH]c2=O)cccc1[N+](=O)[O-]	i
Cn1c(NCCCN2CCOCC2)nc2c1c(=O)n(Cc1ccccc1Cl)c(=O)n2C	i
COc1cc(OC)c(OC)cc1/C=C1\Oc2cc(OC(=O)C3CC3)ccc2C1=O	i
COc1ccc(OCc2noc(CNC(=O)c3ccc(=O)[nH]n3)n2)cc1	i
CCOc1cc(/C=C2\SC(=S)N(c3ccccc3C)C2=O)ccc1O	i
COc1ccc(-n2nnc(C(=O)Nc3ccon3)n2)cc1	i
COc1ccc(NC(=O)CSc2ncc(S(=O)(=O)c3ccc(C)cc3)c(=O)[nH]2)c(OC)c1	i
Cc1noc(NS(=O)(=O)c2ccc(NC(=O)c3ccc(Br)cc3)cc2)c1C	i
Cc1ccc(C(O)CNC(=O)C2CC2)o1 (configuration not stated)	i
COC(=O)Cn1c(=O)c2c(nc3n2CCCN3c2ccc(Br)cc2)n(C)c1=O	i
CC(C)N(Cc1ccccc1)S(=O)(=O)c1cc2c3c(c1)CCC(=O)N3CCC2	i
COc1ccc(OCc2noc(CNC(=O)c3ccc4ncsc4c3)n2)cc1	i
COc1ccc(CCC(=O)Nc2ccc3c(c2)N(S(=O)(=O)c2ccccc2)CCC3)cc1	i

Given bar-delimited: part of the list above.
mol | GIRK2 act
COc1ccc(-n2nnc(C(=O)Nc3ccon3)n2)cc1 | i
COc1ccc(NC(=O)CSc2ncc(S(=O)(=O)c3ccc(C)cc3)c(=O)[nH]2)c(OC)c1 | i
Cc1noc(NS(=O)(=O)c2ccc(NC(=O)c3ccc(Br)cc3)cc2)c1C | i
Cc1ccc(C(O)CNC(=O)C2CC2)o1 (configuration not stated) | i
